StopGo FLuc: FMDV 2A StopGo reporter, firefly signal; HEK cells with a luciferase reporter of 2A StopGo recoding; Potency, µM (highest dose often 57.5 µM), for the others: top-dose signal change, negative = less light; 120,000 compounds, 0.23% hits; active = well fitted falling curve with a large enough effect; inconclusive = small, poorly fitted or top-dose-only effect; inactive = no such curve, though single readings can be large or run the other way; note: nearly all actives have a fitted effect of over 60% in size; overnight with compound
StopGo RLuc: lowers the Renilla signal of an FMDV 2A StopGo reporter | HEK cells with a luciferase reporter of 2A StopGo recoding | Potency, µM (highest dose often 57.5 µM), for inactives: top-dose signal change, negative = less light | 120,000 compounds, 0.32% hits; active means well fitted falling curve with a large enough effect; inconclusive means small, poorly fitted or top-dose-only effect; inactive means no such curve, though single readings can be large or run the other way; note: nearly all actives have a fitted effect of over 55% in size; overnight with compound
Active calls of the source: *; ? = inconclusive; & = joins results of further samples; [ ] = another dose, or the depositor's remark. % is set by controls: 0 for no effect and ±100 for the full control effect; potency is the fitted concentration of half-maximal effect.

Molecule	StopGo RLuc	StopGo FLuc
CC(=O)Nc1ccc(S(=O)(=O)NCCc2csc3nc(-c4cccc(C)c4)nn23)cc1	99%[activator]	0%
COc1cccc(NC(=O)Cn2c(=O)n(-c3ccc(C)cc3)c(=O)c3ccccc32)c1	-2%	-5%
CCN1CCN(C(=O)c2ccc(-n3nc(C)c(-c4ccc(C)cc4)c3NC(C)=O)cc2)CC1	-11%	-6%
Cc1ccc(CCNc2nc3ccccc3c3nc(-c4cccnc4)nn23)cc1	-15%	-8%
Cc1ccc(NC(=O)Cc2ccc3c(c2)CCCC3)cc1	13%	23%
Cc1cccc(NC(=O)N2CCC(n3c(C)nc4cccnc43)CC2)c1	7%	81%[activator]
O=C(Nc1ccc(F)cc1)c1cccc(N2CCCS2(=O)=O)c1	5%	21%
COc1cc(C(=O)NC(c2ccc(Cl)cc2)c2cc(Cl)c3cccnc3c2O)cc(OC)c1OC (stereo not given)	11%	4%
NC(=O)C1CCCN(CCC(=O)O)C1 (stereo not given)	9%	3%
Cc1ccc(N(Cc2cc3ccc(C)cc3[nH]c2=O)S(C)(=O)=O)c(C)c1	-4%	-4%
CCSc1nc(C(F)(F)F)nc2ccccc12	-3%	9%
O=C(/C=C/c1ccc(-c2cccc(Cl)c2Cl)o1)c1ccccc1	-10%	17%
O=C(O)c1cc(-c2cccc(Cl)c2)nc2c(Cl)cccc12	13%	23%
COC(=O)c1ccc(COc2ccc(/C=N/O)cc2OC)cc1	0%	0%
O=C(O)Cc1ccc2[nH]c3ccccc3c2c1	-16%	12%
CC1CCCN(c2nnc(NC(=O)Nc3ccc4c(c3)OCCO4)s2)C1 (stereo not given)	-14%	-4%
Cc1ccn2cc(-c3ccc(NC(=O)CCCc4ccccc4)cc3)nc2n1	7%	132%[activator]
CCOCCn1ccc2c(OCC(=O)NCc3ccc(F)cc3)cccc2c1=O	19%	-1%
Cc1ccc(CNc2oc(-c3ccc(F)cc3)nc2C#N)cc1	23%	55%[activator]
COc1cc2ccccc2cc1C(=O)N1CCN(c2nc3c(F)cc(F)cc3s2)CC1	?	?
Cn1c(=O)[nH]c(=O)c2c1nc(CN(Cc1ccccc1)Cc1ccccc1)n2Cc1ccccc1F	?	?
Cc1ccc2c(c1)N(C(=O)N1CCC(C(=O)NCCC3=CCCCC3)CC1)CC(C)O2 (stereo not given)	-8%	-9%
CC(=O)NC12CC3CC(C1)CC(C(=O)NCCSCc1ccc(Cl)cc1)(C3)C2	?	?
Cc1[nH]c2ccccc2c1CC(=O)NCc1ccco1	0%	7%
CCOc1ccccc1NC(=O)C(C)N(c1ccccc1)S(C)(=O)=O (stereo not given)	9%	-14%
Cc1ccc(C(=O)O)cc1N1CC(O)=C(c2nc3ccccc3n2C)C1=N	-9%	-8%
O=C(Nc1cccc(C(F)(F)F)c1)c1cc(-c2ccc3c(c2)OCCO3)on1	?	12%
COc1cc(NC(=O)Cn2c(-c3ccccc3)cc(C(C)=O)c2C)cc(OC)c1	-4%	-15%
COc1cccc(CNC(=O)c2ccc(NC(=O)N3CCSc4nc(C)cc(C)c43)cc2)c1	8%	12%
CC(=O)N1CCN(C(C(=O)O)c2c[nH]c3ccc(Cl)cc23)CC1 (stereo not given)	-10%	-11%
Cc1[nH]nc2c1C(c1ccccc1OCc1ccc(F)cc1)CC(=O)N2 (stereo not given)	9%	5%
Cc1ccc(S(=O)(=O)n2nc(-c3ccco3)nc2NCc2ccc(N(C)C)cc2)cc1	101%[activator]	89%[activator]
O=C1Cc2cc(-c3csc(NC4CC4)n3)ccc2N1	-12%	70%[activator]
CC1CCCN(Cc2c(O)ccc3c(=O)c(Oc4ccc(C(C)(C)C)cc4)c(C(F)(F)F)oc23)C1 (stereo not given)	3%	12%
CCOC(=O)c1ccccc1NC(=O)c1cc2c(=O)oc3ccc(C)cc3c2s1	-2%	-14%
COc1ccc(-c2cc(OC(=O)c3ccccc3)c3c(C)oc(C)c3c(=O)c2)cc1OC	-12%	0%
CCC(CC)C(=O)Nc1ccccc1SCc1cc(=O)n2ccsc2n1	6%	5%
CCc1ccc(-c2cc(C(F)(F)F)n3nc(C(=O)NCc4cnn(C)c4)cc3n2)s1	11%	-13%
Cc1ccc(C(=O)C(C)OC(=O)c2cc(=O)[nH]c3ccccc23)cc1 (stereo not given)	-4%	-2%
CNc1c(NC(=O)c2ccc(Br)o2)c(=O)oc2ccccc12	16%	0%

Next part, overlapping the part above by four compounds.
Molecule	StopGo RLuc	StopGo FLuc
CCC(CC)C(=O)Nc1ccccc1SCc1cc(=O)n2ccsc2n1	6%	5%
CCc1ccc(-c2cc(C(F)(F)F)n3nc(C(=O)NCc4cnn(C)c4)cc3n2)s1	11%	-13%
Cc1ccc(C(=O)C(C)OC(=O)c2cc(=O)[nH]c3ccccc23)cc1 (stereo not given)	-4%	-2%
CNc1c(NC(=O)c2ccc(Br)o2)c(=O)oc2ccccc12	16%	0%
CCc1cccc(NC(=O)CCS(=O)(=O)c2ccc(C)cc2)c1	23%	-10%
Cc1ccccc1NS(=O)(=O)c1ccc2c(c1)c(=O)n(CC(=O)N1CCCCCC1)c(=O)n2C	-28%	?
COc1ccc(Oc2c(C)oc3cc(OCC(=O)N4CCC(C(N)=O)CC4)ccc3c2=O)cc1	5%	16%
Cc1ccccc1NC(=O)CCN1C(=O)c2ccccc2Sc2ncccc21	141%[activator]	33%[activator]
Cc1ccc(-c2ccsc2C(=O)N2CCN(S(=O)(=O)c3ccc(F)c(F)c3)CC2)cc1	7%	-15%
O=C(N=C1N(CC2CC2)CC2(C=C3CCCCC3n3c(=O)n(-c4ccccc4)c(=O)n32)N1C(=O)OCc1ccccc1)c1ccccc1 (stereo not given)	165%[activator]	86%[activator]
Oc1cc(Cl)ccc1Oc1ccc(Cl)cc1Cl	?	?
COc1ccc(C)cc1NC(=O)Cn1c(=O)ccc2cc(S(=O)(=O)N3CCCC3)ccc21	-17%	-20%
CCOc1ccc(C(=O)Nc2ccc(-c3cn4ccc(C)nc4n3)cc2)cc1OCC	-2%	9%
CSc1ccc(CCNC(=O)c2cnc3c(C)cccn3c2=O)cc1	4%	11%
CCS(=O)(=O)n1nc(-c2ccc(Cl)cc2)nc1N	11%	0%
CCNc1c(NC(=O)c2cc(OC)cc(OC)c2)c(=O)oc2ccccc12	0%	33%[activator]
C=CCc1ccccc1OCC(O)CN1CCN(c2ccccc2)CC1 (stereo not given)	-5%	-1%
Cc1ccc(Nc2c(-c3ccc(N(C)C)cc3)nc3ccccn23)cc1	7%	111%[activator]
COCCCNc1nc2ccccc2nc1N(C)S(=O)(=O)c1ccc(C)cc1	0%	-14%
Nc1nccnc1C(=O)NCCc1ccc(Cl)cc1	?	160%[activator]
Cn1nc(C(=O)Nc2nc(-c3ccc(F)cc3)cs2)c2ccccc2c1=O	-5%	5%
CCOc1ccc(C(=O)Nc2ccc3oc(-c4cccc(C)c4)nc3c2)cc1[N+](=O)[O-]	-5%	62%[activator]
Cc1ccc(C(CNC(=O)c2cccs2)N2CCC(C)CC2)o1 (stereo not given)	-6%	-7%
Cc1ccccc1CNC(=O)C(=O)NCC(c1cccs1)S(=O)(=O)c1cccs1 (stereo not given)	4%	-15%
CCc1ccccc1NC(=O)CSc1nc(C)c(C)o1	-6%	2%
Cc1ccccc1NC(=O)c1cc2ccccc2o1	12%	95%[activator]
CC(C(=O)NCCCN1CCOCC1)C1CCN(C(=O)c2cc3ccccc3[nH]2)CC1 (stereo not given)	-2%	3%
COc1ccc(Nc2nc(N3CCCC3)c3nccnc3n2)c(OC)c1	-5%	7%
C=CCOc1cccc(CNCCc2ccccc2)c1	22%	0%
CCCCc1nc(SCC(=O)Nc2ccc(OC)cc2)c2c3c(sc2n1)COC(C)(C)C3	2%	15%
Cc1ccc(NC(=O)CCc2ncc(-c3c(F)cccc3F)o2)c(O)c1	3%	15%
Cc1ccc2nc(/C(C#N)=C/c3ccc(-c4ccc(F)cc4F)o3)[nH]c2c1	0%&-9%	19%&-14%
Cn1c(=O)[nH]c(=O)c2c1nc(NCCc1ccccc1)n2CC(=O)c1ccccc1	-9%	-1%
COCCCNc1nc2c(c(=O)n(Cc3ccccc3)c(=O)n2C)n1C	-2%&-2%	21%&-5%
COc1ccc(NC(C)=O)cc1NC1CCOC1=O (stereo not given)	0%	-13%
Cc1cc(C)c2c(-n3cccc3)c(C(=O)NCc3cccc(F)c3)sc2n1	-7%	-13%
COc1ccc(C2CCCN2CC(=O)N(CCC#N)c2ccccc2)cc1 (stereo not given)	-7%	5%
Cn1c(=O)c2c(ncn2Cc2ccccc2Cl)n(C)c1=O	?	8%
CCNC(=O)CN1CCN(c2ccnc3c(F)ccc(F)c23)CC1	-8%	0%
CC1=C(C#N)C(NC(=O)CCC2CCCCC2)(C(F)(F)F)C(=O)N1 (stereo not given)	3%	-11%
Cc1cccc[n+]1Cc1ccccc1	21%	0%
N#Cc1c(SCC(=O)N2CCCC2)nc(N2CCCC2)c2c1CCCC2	29%	2%
COc1ccc(C2CC(=O)NC3=C2C(=O)CC(C)(C)C3)cc1 (stereo not given)	8%	7%
CCOc1ccc(N(C(C)C(=O)NCCSc2ccc(Cl)cc2)S(C)(=O)=O)cc1 (stereo not given)	39%[activator]	-10%
N#CC1=C(N)Oc2n[nH]c(-c3ccccc3)c2C12C(=O)N(Cc1cccc(F)c1)c1ccccc12 (stereo not given)	-23%	-29%
CCCSc1ncc(Cl)c(C(=O)Nc2c(C(=O)Nc3ccc(C)cc3)oc3ccccc23)n1	-8%	23%
COc1ccc(C(=O)COc2cccc(C#N)c2)cc1OC	-4%	23%
Cc1ccc2c(c1)OC=CC(C(=O)Nc1ccc(Cl)c(Cl)c1)=C2	-10%	7%
CCCC1=C(C(=O)OCC)C(c2ccc(C)cc2)C(C#N)=C(N)O1 (stereo not given)	0%	5%
COc1cccc(CNC(=O)NCc2noc3ccc(C)cc23)c1	21%	-10%
CCOc1ccc(N(C(=O)C23CC4CC(CC(C4)C2)C3)C2C=CS(=O)(=O)C2)cc1 (stereo not given)	-13%	-16%
CC(=O)NCCc1ccccc1	10%	19%
Cc1oc(-c2cccc(Cl)c2)nc1CN1CCC(C(=O)NCCCN2CCN(c3ccc(F)cc3)CC2)CC1	-7%	?
CC(C)CCNC(=O)c1ccc(NC(=O)N2CCCCc3ccccc32)cc1	-9%	-15%
N#Cc1ccccc1CNc1ccc(F)cc1Cl	41%[activator]	43%[activator]
Cc1ccc(NC(=O)Cn2nc(C(=O)Nc3ccc(C)cc3)ccc2=O)cc1	-6%	-1%
O=C(Nc1nc(C23CC4CC(CC(C4)C2)C3)cs1)c1cc(-c2cccnc2)nc2ccccc12	-3%	4%
COCCn1c(SC(C)c2nc(C(C)(C)C)no2)nc2sc(C)c(C)c2c1=O (stereo not given)	13%	13%
CCOc1ccc(/C=C/C(=O)Nc2cccc3cccnc23)cc1OC	6%	31%[activator]
COc1ccc(CNC(=O)Cc2c(C)c3c(OC(C)=O)cc(OC(C)=O)cc3oc2=O)cc1	25%	137%[activator]
Cc1csc(CNC(=O)/C=C/c2cccnc2)n1	-8%	15%
CC(NC(=O)c1ccco1)c1ccc(-c2ccccc2)cc1 (stereo not given)	?	-27%
CC(C)CCNC(=O)C(CC(C)C)NC(=O)OC(C)(C)C (stereo not given)	8%	-4%
Cc1sc2ncn(CC(=O)Nc3ccc(C(C)C)cc3)c(=O)c2c1S(=O)(=O)N1CCN(c2ncccn2)CC1	0%	-7%

Another view of part of the listing above.
Each structure is followed by: StopGo RLuc, StopGo FLuc
CC(C)CCNC(=O)c1ccc(NC(=O)N2CCCCc3ccccc32)cc1
    -9%, -15%
N#Cc1ccccc1CNc1ccc(F)cc1Cl
    41%[activator], 43%[activator]

Going on with the list:
Molecule	StopGo RLuc	StopGo FLuc
CC(NC(=O)c1cc(F)cc(F)c1)c1cccc(NS(C)(=O)=O)c1 (stereo not given)	?	?
Cc1ccc(OC(=O)c2cc(-c3ccc4c(c3)OCCO4)on2)cc1C	-14%	-10%
CC(C)=CCN1CCN(CC2CCCO2)CC1 (stereo not given)	5%	2%
CC1(C)CC(=O)c2cc(-c3nc(-c4ccc(Cl)cc4)cs3)c(=O)n(-c3ccc(F)cc3)c2C1	-12%	-9%
Cc1ccc(-c2nc(CSc3nnc(NCc4ccccc4)s3)co2)cc1	-25%	111%[activator]
Cn1c(=O)[nH]c(=O)c2c1nc(N1CCc3ccccc3C1)n2Cc1ccccc1Cl	-1%	-2%
Cc1nc(N2CCCC2)ncc1C(=O)Nc1ccc(OC(F)(F)F)cc1	6%	12%
O=C(O)/C=C/c1cc(F)ccc1F	0%	21%
CN(CC(=O)Nc1c(Cl)cccc1Cl)C(=O)CCc1ncc(-c2ccccc2F)o1	68%[activator]	166%[activator]
CCS(=O)(=O)N1CC(=O)N(c2ccc(C)c(C)c2)C(C)(C(=O)NC2CCCCCC2)C1 (stereo not given)	3%	-11%
Cc1ccc(NC(=O)C(C)Sc2nc(=O)cc(N)n2-c2cccc(C)c2)cc1 (stereo not given)	40%[activator]	-17%
O=c1c2nccnc2nc(SCc2ccccc2Cl)n1Cc1ccc2c(c1)OCO2	2%	-5%
CCCn1c(=O)c2ccc(C(=O)NCC(C)C)cc2n2c(SCc3ccccc3F)nnc12	28%	31%[activator]

Bioassay records as filed in PubChem.
